GIRK2 activ = activators of human GIRK2 potassium channels; G protein-activated inward rectifier potassium channel 2 (Homo sapiens), P48051; HEK293-GIRK2 thallium flux, Thallos fluorescence; calls only for hits at 25 µM; 63,000 tested, 0.05% active; AID 1259325, 2017;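 active means among the strongest 0.2% of first-round signals and kept after retests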;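 further: first round at about 10 µM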
Target sequence (P48051 whole entry, looked up): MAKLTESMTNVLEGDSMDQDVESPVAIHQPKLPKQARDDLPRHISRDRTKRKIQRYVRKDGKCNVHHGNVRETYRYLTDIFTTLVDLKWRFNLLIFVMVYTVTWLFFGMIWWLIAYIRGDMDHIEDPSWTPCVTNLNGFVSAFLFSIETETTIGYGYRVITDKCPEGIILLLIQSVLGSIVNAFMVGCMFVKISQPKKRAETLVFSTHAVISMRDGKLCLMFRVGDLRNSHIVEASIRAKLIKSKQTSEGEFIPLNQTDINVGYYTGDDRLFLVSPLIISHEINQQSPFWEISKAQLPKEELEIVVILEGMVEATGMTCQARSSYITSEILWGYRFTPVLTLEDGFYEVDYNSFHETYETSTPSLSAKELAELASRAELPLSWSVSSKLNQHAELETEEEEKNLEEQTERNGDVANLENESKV
Calls only; i = inactive.

SMILES	GIRK2 activ
CC(C)n1c(NCCCO)nc2c1c(=O)[nH]c(=O)n2C	i
Cn1nc(-c2ccc(F)cc2)cc1C(=O)NCC1CCN(C(=O)c2ccccc2F)CC1	i
COC(=O)N1CCc2c(sc(NC(=O)c3ccc(C)c(C)c3)c2-c2nc3ccccc3s2)C1	i
COc1ccc(-c2cc3c(SCC(=O)Nc4cc(C)ccc4OC)nccn3n2)cc1	i
O=C1/C(=C/c2cccnc2)Oc2c1ccc1c2CN(Cc2ccc3c(c2)OCO3)CO1	i
O=C(Cn1c(=O)c(-c2ccccc2)nc2ccccc21)Nc1ccccc1C(F)(F)F	i
COc1ccc(OC)c(-n2c(-c3ccccc3)cn3c4c(=O)n(CC(C)=O)c(=O)n(C)c4nc23)c1	i
CC(=O)Nc1ccc(S(=O)(=O)Nc2ccc(-n3nnn(C)c3=O)cc2)cc1	i
Cc1cc(C(O)CCNC(=O)c2c(-c3ccccc3Cl)noc2C)c(C)o1 (stereo not given)	i
C=CCN(CC=C)C(=O)CSc1nnc(C)c(=O)[nH]1	i
CCc1ccc(N(Cc2cc(F)cc(F)c2)S(=O)(=O)c2cccn3c(C)nnc23)cc1	i
O=c1c2oc3ccccc3c2[nH]c(=S)n1CCc1ccccc1	i
CN1CCCC(n2nc(Cc3ccc(Cl)cc3)c3ccccc3c2=O)CC1 (stereo not given)	i
O=C(NC1CC(=O)N(C2CC2)C1)c1cccc(F)c1 (stereo not given)	i
COc1ccc(OC)c(-c2cc(C(=O)NCCn3cnc(-c4ccccc4)cc3=O)[nH]n2)c1	i
N#CC1=CN(c2cc(Cl)cc(Cl)c2)c2cc(F)ccc2S1(=O)=O	i
COc1cc2nc(SCC(=O)N(C)C3CCCCC3)n3nc(C)nc3c2cc1OC	i
O=C(C1CCN(c2ccc(-c3ccccc3)nn2)CC1)N1CCN(Cc2ccccc2)CC1	i
CCOc1cccc2sc(NC(=O)c3cc(C)nn3CC)nc12	i
COc1ccccc1N1CCN(CCNS(=O)(=O)c2ccc3c(c2)CCCC3)CC1	i
C=CCn1c(SCc2c(C)noc2C)nc2sc(C)c(C)c2c1=O	i
CS(=O)(=O)N1CCC(C(=O)N2CCN(C(=O)C3CC3c3cccs3)CC2)CC1 (stereo not given)	i
COc1ccc(-c2nc(C)ncc2Oc2ccccc2OC)c(O)c1	i
Cn1c2ccccc2c(=O)c2c(=O)n(Cc3ccco3)c(-c3ccc(F)cc3)nc21	i

Some of the entries so far, with each value named.
COc1ccc(-c2nc(C)ncc2Oc2ccccc2OC)c(O)c1
  GIRK2 activ = i

O=C(Cn1c(=O)c(-c2ccccc2)nc2ccccc21)Nc1ccccc1C(F)(F)F
  GIRK2 activ = i

Cn1nc(-c2ccc(F)cc2)cc1C(=O)NCC1CCN(C(=O)c2ccccc2F)CC1
  GIRK2 activ = i

Going on with the list:
SMILES	GIRK2 activ
Cn1cnnc1SCCNC(=O)C1CCCN(Cc2nc(-c3cccs3)no2)C1 (stereo not given)	i
COc1ccc(-c2c(NC(=O)c3cccs3)oc3c(sc4ccccc43)c2=O)cc1	i
COc1cccc(CNC(=O)C(=O)NCC(O)c2sccc2C)c1 (stereo not given)	i
COc1cc(-c2nc(Cn3ccn4nc(-c5ccc(C)cc5)cc4c3=O)c(C)o2)cc(OC)c1OC	i
Cc1ccc(C)c(N2CCn3c2nc2c3c(=O)n(CC(=O)C(C)(C)C)c(=O)n2C)c1	i
Cn1c(=O)c2c(nc3n(CCN4CCOCC4)c(-c4ccccc4)cn23)n(C)c1=O	i
OC(CN1CCN(Cc2cc(F)ccc2F)CC1)C1CC1 (stereo not given)	i
COc1cccc(CNC(=O)Cn2c(=O)[nH]c3c(-c4ccccc4F)c[nH]c3c2=O)c1	i
Cc1ccccc1NC(=O)CSc1nc2ncccc2c(=O)n1CC1CCCO1 (stereo not given)	i
COc1cccc(-n2c(=S)sc3c(=O)[nH]c(SCC(=O)Nc4c(C)cccc4C)nc32)c1	i
O=C(c1cc(-c2ccco2)[nH]n1)N1CCCC(c2nnc(-c3ccccc3F)s2)C1 (stereo not given)	i
O=C(Cn1nc(-c2ccccc2)c2sc(N3CCCC3)nc2c1=O)c1ccccc1	i
COC(=O)c1ccccc1NC(=O)C1=Cc2ccccc2OC1	i
O=c1ccn(-c2ccc(Cl)cc2)nc1-c1nc(-c2cccc(Br)c2)no1	i
Cc1c(C)n2c3c(=O)n(CC(=O)c4ccc(F)cc4)c(=O)n(C)c3nc2n1C(C)c1ccccc1 (stereo not given)	i
COc1ccc(S(=O)(=O)N2CCCc3cc(NC(=O)COc4ccccc4)ccc32)cc1	i
Cc1ccccc1NC(=O)N(Cc1ccsc1)CC(F)(F)F	i
COc1ncc(NC(=O)c2c(F)cccc2Cl)cn1	i
O=C(NCCCN1CCN(c2ccccc2)CC1)c1ccc(F)cc1Cl	i
CC(=O)COc1cccc(N2CCn3c2nc2c3c(=O)n(C)c(=O)n2C)c1	i
CCOC(=O)c1ccccc1NC(=O)Cn1nc2cc(-c3ccccn3)nc(C)n2c1=O	i
CONC(=O)CCc1csc2nc(C3CC3)cn12	i
COc1cccc(/C=C/c2nc(C#N)c(N3CCN(C(=O)c4ccccc4OC)CC3)o2)c1	i
COCCN(Cc1ccoc1)S(=O)(=O)c1ccc(F)cc1C	i
COc1ccccc1NC(=O)CSc1ncnc2nc(N3CCc4ccccc4C3)sc12	i
O=C(N1CCC(CSC2=NCCS2)CC1)C1(c2cccs2)CCCC1	i
CCc1ccccc1N1C(=O)CC(N2CCN(Cc3ccccc3)CC2)C1=O (stereo not given)	i
COc1ccc(C2CCN(C(=O)Cc3ccc(SC(C)C)cc3)C2)cc1 (stereo not given)	i
O=C(Nc1cccc(-c2ccn[nH]2)c1)c1ccc(=O)[nH]c1	i
COCCn1c(-c2nc(C(=O)N3CCN(c4ncccn4)CC3)cs2)cc2ccccc21	i
CC(=O)c1ccc(N2CCN(C(=O)CCc3csc4nc(C)cn34)CC2)cc1	i
COc1ccc(N(C)c2nnc(-c3ccc(NC(=O)c4ccc5c(c4)OCO5)cc3)s2)cc1	i
COc1cccc(NC(=O)CSc2cc(-n3nc(C)cc3C)ncn2)c1	i
O=C(c1cc(Cl)ccc1Cl)N1CCN(CC(O)c2cccs2)CC1 (stereo not given)	i
CS(=O)(=O)c1ccc(NC(=O)CCCn2c(=O)[nH]c3ccsc3c2=O)cc1	i
CCCCCC#CCC#CCC#CCC#CCCCC(=O)O	i
O=C(NCc1ccncc1)c1nnn(-c2ccccc2Cl)c1-c1ccncc1	i
CCOc1ccc(-c2ccc(=O)n(Cc3nc(-c4cccc(OC)c4)no3)n2)cc1	i
CC(C)(Oc1ccc(Cl)cc1)C(=O)Nc1nc2c(s1)CN(S(C)(=O)=O)CC2	i
CCc1c(C#N)c(SCc2c(C)noc2C)nc2c1C(=O)CC(C)(C)C2	i
COc1ccc(-n2nnc(C(=O)Nc3cc(Cl)ccc3Cl)c2N)cc1	i
O=c1ccn(-c2ccc(F)c(F)c2)nc1-c1nc(-c2cccc(Br)c2)no1	i
CN(C)CCNc1nc(S(=O)(=O)c2ccccc2)c(Cl)s1	i
COCCNc1oc(-c2ccc(S(=O)(=O)N(C)C)cc2)nc1C#N	i
C=C(C)[C@@H]1CC[C@]2(C(=O)O)CC[C@]3(C(=O)O)[C@H](CCC4[C@@]5(C)CCC(=O)C(C)(C)C5CC[C@]43C)C12 (stereo not given in full)	i
O=C(Nc1ccc2c(c1)OCO2)N1CC(Oc2nc3c(C(F)(F)F)cccc3s2)C1	i
COc1cccc(C2c3c(oc4ccccc4c3=O)C(=O)N2CCN2CCOCC2)c1 (stereo not given)	i
COc1ccccc1OCC#CCNS(=O)(=O)/C=C/c1ccccc1	i

Reprinted from the part before: 7 entries, followed by the next part.
SMILES	GIRK2 activ
O=c1ccn(-c2ccc(F)c(F)c2)nc1-c1nc(-c2cccc(Br)c2)no1	i
CN(C)CCNc1nc(S(=O)(=O)c2ccccc2)c(Cl)s1	i
COCCNc1oc(-c2ccc(S(=O)(=O)N(C)C)cc2)nc1C#N	i
C=C(C)[C@@H]1CC[C@]2(C(=O)O)CC[C@]3(C(=O)O)[C@H](CCC4[C@@]5(C)CCC(=O)C(C)(C)C5CC[C@]43C)C12 (stereo not given in full)	i
O=C(Nc1ccc2c(c1)OCO2)N1CC(Oc2nc3c(C(F)(F)F)cccc3s2)C1	i
COc1cccc(C2c3c(oc4ccccc4c3=O)C(=O)N2CCN2CCOCC2)c1 (stereo not given)	i
COc1ccccc1OCC#CCNS(=O)(=O)/C=C/c1ccccc1	i
Cc1cc(C(F)(F)F)nc(CCNC(=O)Cc2cccc3ccccc23)n1	i
COc1ccccc1N1CC(C)Cn2c1nc1c2c(=O)n(CCCc2ccccc2)c(=O)n1C (stereo not given)	i
O=C1c2oc3ccc(Br)cc3c(=O)c2C(c2cccnc2)N1Cc1ccccc1 (stereo not given)	i
Cc1ccc(S(=O)(=O)NCCCn2ncccc2=O)c(C)c1	i
CCOC(=O)c1c(S(=O)(=O)N2CCN(c3ccccc3)CC2)n[nH]c1CC	i
NC(=O)c1cc(-c2ccc(F)cc2)cc(-c2ccncc2)c1N	i
CCOc1ccccc1S(=O)(=O)N1CCN(CC(C)O)CC1 (stereo not given)	i
CC(=O)Nc1ccc(C(=O)NCCNS(=O)(=O)c2ccc(Cl)s2)cc1	i
O=C(Nc1ccc(OC(F)(F)F)cc1)Nc1cc(N2CCOCC2)ncn1	i
Cc1cc(C(=O)N2CCC(CSc3nccn3C)CC2)c(C)o1	i
O=C(c1c(F)cccc1Cl)N1CCN(CCn2cccn2)CC1	i
C=CCOCC(O)Cn1c(N2CCCCC2)nc2c1c(=O)n(C)c(=O)n2C (stereo not given)	i

Molecules shown so far that have a COOH group:
SMILES	GIRK2 activ
CCCCCC#CCC#CCC#CCC#CCCCC(=O)O	i
C=C(C)[C@@H]1CC[C@]2(C(=O)O)CC[C@]3(C(=O)O)[C@H](CCC4[C@@]5(C)CCC(=O)C(C)(C)C5CC[C@]43C)C12 (stereo not given in full)	i

New compounds follow
SMILES	GIRK2 activ
COc1cc(/C=C\C(=O)Nc2cc(-c3cccs3)nn2-c2nc(C)cc(=O)[nH]2)cc(OC)c1OC	i
NC(=O)c1ccccc1NC(=O)Cc1csc(Nc2ccccn2)n1	i
O=C(C1CCC1)N1CCCSCC1CN1CCCCC1 (stereo not given)	i
COC(=O)c1ccccc1NC(=O)c1nnn(-c2ccc(F)cc2)n1	i
Cn1ccnc1SCC1CCN(C(=O)c2ccccc2F)CC1	i
COc1cccc(CSc2nccn(-c3ccc(Br)cc3)c2=O)c1	i
O=c1c2nnn(-c3ccc(F)cc3)c2ncn1Cc1nc(-c2ccc(F)cc2)no1	i
O=C1N(CCOc2ccccc2)c2ccc(Cl)cc2C12OCCO2	i
COc1ccc(CNC(=O)N2CC(Oc3nc4ccccc4s3)C2)cc1OC	i
COc1cc(C)c(C)cc1S(=O)(=O)NCc1sc(-c2ccco2)nc1C	i
O=C(CNC(=O)c1c[nH]c2ccccc12)Nc1cccc(OC(F)F)c1	i
COc1ccc(-n2nnc(C(=O)N3CCC4(CC3)OCCO4)n2)cc1	i
COC(=O)c1cc(Nc2cccc(F)c2)c2cccc(OC)c2n1	i
CCOc1ccc(CCNC(=O)Cn2ccn3nc(-c4ccc(OC)cc4)cc3c2=O)cc1OCC	i
COc1cccc2sc(N3CC(OC(=O)c4cc(C)oc4C)C3)nc12	i
Cn1nc(-c2ccccc2)cc1C(=O)N1CCCSCC1CN1CCOCC1 (stereo not given)	i
CSc1ccccc1NC(=O)CCCn1cccc1	i
Cc1ccc(NC(=O)Cn2nc(N3CCCC(C)C3)c3ccccc3c2=O)cc1Cl (stereo not given)	i
Cc1nc(NCCNC(=O)C2CCCC2)cc(Nc2ccccn2)n1	i
O=C(Cc1ccc(NS(=O)(=O)CCN2C(=O)CCCC2=O)cc1)NC1CC1	i
CC(=O)N1CCN(Cc2nnnn2-c2ccc(F)cc2)CC1	i
O=C(Nc1cnc(N2CCCC2)nc1)c1cccc2ccccc12	i
O=C(NCc1ccccc1)N1CCC(Oc2nc3ccccc3s2)CC1	i
O=C(NC1CCN(C(=O)c2cn(-c3cccc(F)c3)nn2)CC1)c1ccc2ccccc2c1	i
COc1ccc(NC(=O)CSc2nccnc2N2CCN(c3ccccc3OC)CC2)cc1	i
Cc1ccc(C(=O)CSc2nnc3scc(-c4ccccc4)n23)cc1C	i
CCc1ccc(N2CC(c3nc4ccccc4n3CC(=O)N3CCCCC3)CC2=O)cc1 (stereo not given)	i
CCN(C(=O)c1nccnc1-c1nc2ccccc2s1)c1cccc(C)c1	i
COc1ccc(S(=O)(=O)N(C)C2CCCCC2)cc1	i
Cc1n[nH]c(C)c1CCC(=O)NCc1cc(-c2ccc(F)cc2)on1	i
Cc1ccc(N2CCCS2(=O)=O)cc1NC(=O)c1cnc2ccccc2n1	i
CS(=O)(=O)c1ccc(Nc2nc(C(=O)N3CCC(C(N)=O)CC3)cs2)cc1	i
CCN(CC)S(=O)(=O)c1ccc(-c2nc(C#N)c(NCc3ccccc3)o2)cc1	i
O=c1cc(-c2cc(Br)cc3c2OCOC3)oc2ccccc12	i
CCCCC(=O)N1CCCC(c2nnc(-c3ccc4c(c3)OCO4)o2)C1 (stereo not given)	i
CC(C)(C)NC(=O)CN1CCN(c2ccc(F)cc2)C1=O	i
O=C(c1ccccc1F)N1CCC(c2nnc(C3CC3)s2)CC1	i
Cc1c(F)cccc1NC(=O)Nc1cnc(N2CCN(c3ccccc3)CC2)nc1	i
C=CCNC(=O)CCn1cnc2c([nH]c3ccc(F)cc32)c1=O	i
CCCC(=O)N1CCN(C(=O)C(NC(=O)c2ccco2)S(=O)(=O)c2ccc(Cl)cc2)CC1 (stereo not given)	i
Cc1nn(-c2nc3c(c(=O)n(CC(N)=O)c(=O)n3C)n2Cc2ccccc2F)c(C)c1C	i
O=C(CSc1nc(-c2ccccc2)cs1)NCc1ccco1	i
Cc1cc(NC(=O)c2ccsc2)ccc1N1CCCC1=O	i
CCSc1nnnn1-c1ccc(NC(=O)c2cc3ccccc3o2)cc1	i

Screening results: PubChem, Vanderbilt University

Only part of the results is shown; count on the stated rates, not on these rows.
